Assay outcomes deposited in PubChem by Broad Institute.
Tgondii IFNg: T. gondii growth inhibition with IFN-gamma, primary screen, cell-based; Toxoplasma gondii growth in IFN-gamma-treated host cells; active compounds read low; reference of the scale not given here; activity change, negative = inhibition, %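 (about 20 µM by stock and volumes)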; 3.8% of 69,000 active; AID 1259416, 2018;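 active = below -70%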;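 note: host cells are HeLa cells infected with Toxoplasma gondii; parasite growth read as luciferase light; one replicate is shown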
The depositor's hits bear a star; i = inactive; & = joins results of further samples; ! = repeats disagree. This is a subset. The share of hits here may be higher or lower than overall.

SMILES	Tgondii IFNg
Cc1ccc(S(=O)(=O)N(C)c2cncc(C(=O)NC3CCCCCC3)c2)cc1	-50
CC(C)CN1Cc2ccccc2C2(CCN(c3ncc(F)cn3)CC2)C1	-6
Cn1c(=O)cc(C(=O)NCc2ccc(CN3CCCC3=O)cc2)c2ccccc21	-24
Cc1ccc2c(c1)NC1(CCN(S(=O)(=O)c3ccc(Br)cc3)CC1)c1cccn1-2	23
Fc1cccc(CN2CCN(Cc3ccc4cccc(Cl)c4n3)CC2)c1	-4
CN1CCC2C(C[C@@H](CN3CCCC3)N2c2nccs2)C1 (stereo partly specified)	-4
CN(Cc1ncccc1C(=O)O)Cc1nccn1Cc1ccccc1	17
CC(CNC(=O)c1sccc1Cl)Oc1cccnc1 (stereo unspecified)	-42
O=C(NCc1ccco1)[C@@H]1CN(Cc2ccccc2F)[C@@H]2CCO[C@H]21	48
CO[C@@H]1CN(C)C(=O)c2ccc(NC(=O)NC(C)C)cc2OC[C@@H](C)N(Cc2ccc(-c3ccccn3)cc2)C[C@H]1C	-13
CC(C)c1noc(C(C)NC(=O)Cc2noc3ccccc23)n1 (stereo unspecified)	2
Cc1ncsc1CCN(C)C(=O)c1ccc(Cl)s1	-5
COCC(=O)N1CCC2(C=CC(N(C)Cc3ccccn3)CC2)CC1 (stereo unspecified)	-1
C=CCN1C(=O)CCC12CCN(C(=O)c1ccnn1C)CC2	-16
C[C@H](CO)N1C[C@H](C)[C@@H](CN(C)C(=O)Nc2ccc(F)cc2)Oc2ccc(NC(=O)c3ccncc3)cc2CC1=O	26

Part of the list above, field by field.
structure: CN(Cc1ncccc1C(=O)O)Cc1nccn1Cc1ccccc1
  Tgondii IFNg: 17

structure: CC(CNC(=O)c1sccc1Cl)Oc1cccnc1 (stereo unspecified)
  Tgondii IFNg: -42

structure: O=C(NCc1ccco1)[C@@H]1CN(Cc2ccccc2F)[C@@H]2CCO[C@H]21
  Tgondii IFNg: 48

structure: CO[C@@H]1CN(C)C(=O)c2ccc(NC(=O)NC(C)C)cc2OC[C@@H](C)N(Cc2ccc(-c3ccccn3)cc2)C[C@H]1C
  Tgondii IFNg: -13

The list goes on.
SMILES	Tgondii IFNg
Cc1ccc(/C=C/C(=O)N2CCC(c3nc(C(=O)N4CCCC4)c(C)o3)CC2)cc1	-14
O=C(Nc1ccc(Cl)cc1)N1C[C@@H]2[C@H](c3ccccc31)[C@H](CO)N2CC1CCCCC1	-1
O=C(NCCc1csc(-c2ccc(F)cc2)n1)c1ccc(F)cc1	-79*
CCCNC(=O)N1CC2(C1)[C@H](c1ccccc1)[C@@H](CO)N2CC1CCOCC1	27
CCn1ncc2c1CN(S(=O)(=O)c1cn(C)cn1)CC2COC (stereo unspecified)	-4
CCCNC(=O)Cn1c(=O)cc(-c2nc(C3CC3)no2)c2ccccc21	-47
O=C(COC(=O)CCc1c[nH]c(=O)[nH]1)Nc1cccc(Cl)c1	9
CC(C)(C)C1CCc2onc(C(=O)NCC(C)(C)N3CCCCC3)c2C1 (stereo unspecified)	-15
COc1ccccc1CN1C[C@H]2COC[C@@]2(CNC(=O)CC2CC2)C1	161
COc1ccc(F)c(CN2CCCC(O)(CN3CCN(C(C)=O)CC3)C2=O)c1 (stereo unspecified)	21
CCOc1ccc(-c2nc(CN(c3ccccc3)S(=O)(=O)c3ccccc3)c(C)o2)cc1	-32
O=C(c1ccc(F)cc1)N1CCN(S(=O)(=O)c2cc3c4c(c2)CCC(=O)N4CCC3)CC1	-32
Cc1cc(C)n(Cc2nc(-c3ccc(NC(=O)CC(C)(C)C)cc3)oc2C)n1	-10
CN(C)CC(=O)N1Cc2nc(C(=O)NCc3ccccc3)oc2C1	13
CCN(CC)S(=O)(=O)N1CCCn2nc(C(=O)OC)cc2C1	9
CCOc1cc2c3c(c1)C(C)=CC(C)(C)N3C(=O)C2=O	-2
CNc1ncc(CN(C)C(=O)c2cccc(CC3CCNCC3)c2)cn1	-9
CN(C)c1ncc(CN2CCC(C3CCCCN3S(C)(=O)=O)CC2)cn1 (stereo unspecified)	-64
Fc1cccc(NC(=S)Nc2ccc(Cl)cn2)c1	-12
Cc1cc(CN2CCc3[nH]cnc3C2c2cccn2-c2nccs2)on1 (stereo unspecified)	-51
Cc1ccc(CN2CCN(Cc3cccc(OCC(N)=O)c3)CC2=O)cc1	5
C[C@@H]1CN([C@@H](C)CO)C(=O)c2ccccc2-c2ccccc2CO[C@H]1CN(C)C(=O)[C@@H](Cc1ccccc1)N(C)C	10
Cc1scc(C(=O)N2CCc3c(nc[nH]c3=O)C2)c1-c1ccccc1	16
Cn1cccc1-c1cc(C(=O)NCCC(=O)Nc2ccccc2F)[nH]n1	19
Cc1nsc(NC(=O)NC2CCN(Cc3ccccc3Cl)CC2)n1	-6
CN(C)c1nc2c(cc1C(=O)NCC1CC1)CCN(c1ccncn1)CC2	-17
CC(C)OC(=O)CCC/C=C\C[C@@H]1[C@@H](CC[C@@H](O)CCc2ccccc2)[C@H](O)C[C@@H]1O	-26
COc1ccccc1CNS(=O)(=O)c1cc2c3c(c1)CCN3C(=O)CC2	-31
N#CCCN(Cc1ccccc1)C(=O)c1nccnc1C(=O)O	52
O=C(Cc1cccnc1)N1[C@H](CNCC2CCC2)[C@H](c2ccccc2)[C@@H]1CO	-30
Cc1cccc(CN2C(=O)CO[C@H]3CN(C(=O)C4CCOC4)C[C@@H]32)c1 (stereo partly specified)	1
O=C(NCCCO)c1cc(-c2ccn(-c3ccccc3)n2)n2ccccc12	-4
CC(CN1CCOCC1)NC(=O)Cc1sc(N)nc1-c1ccc2c(c1)OCCO2 (stereo unspecified)	10
Cc1ccc(C)n1CCN1CCN(S(=O)(=O)c2ccc(F)cc2F)CC1	48
COc1ccccc1NC(=O)N1C[C@@H](O)COC[C@@H]2O[C@@H](CC(=O)NCCc3ccncc3)CC[C@H]21	23
CC(=O)Nc1ccc(C(=O)N(Cc2ccccc2F)C2(C(=O)NCc3ccccc3)CCN(C(C)=O)CC2)cc1	-52
Cc1cnc(N2CCc3ncnc(C)c3CC2)nc1	13
Cc1cccc(CN2C(=O)CC3C2CCN3C(=O)NC2CCCC2)n1 (stereo unspecified)	2
CC(C)CN1CCS(=O)(=O)[C@H]2CCN(S(=O)(=O)Cc3ccccc3)CC[C@@H]21	9
O=c1c(CN2CCCCCC2c2cc(-c3ccc(F)cc3)no2)coc2ccccc12 (stereo unspecified)	34
CCc1nc(SCC(=O)NCCc2c[nH]c3ccccc23)n[nH]1	36
Cc1ccc(-n2c(SCc3nc(-c4ccc(Cl)cc4)oc3C)nc3c(=O)[nH]cnc32)cc1	-16
COc1ccc(-n2c(=O)c(C(=O)NCC(C)C)c(O)c3cccnc32)cc1	13
Cc1cc(C)nc(CCNC(=O)c2cccc(NCc3sccc3C)c2)n1	24
CCn1c(C2CCN(C(=O)C3CC(=O)c4ccccc43)CC2)nn(C)c1=O (stereo unspecified)	58
COc1ccc(-c2nc(C)c(CCNS(=O)(=O)c3cc(Cl)ccc3Cl)s2)cc1OC	i
CSc1nc(N)n2nc(C(C)(C)C)cc2n1	58
C=CCOCC12CCCOC1CCN(S(=O)(=O)c1cn(C)cn1)C2 (stereo unspecified)	4
CO[C@H]1CCN(C(=O)c2cccs2)[C@H]1Cc1ccccc1	18
Cc1occc1C(=O)N1CCCC2(CCN(c3cncnc3)C2=O)C1 (stereo unspecified)	100
COc1ccccc1-c1ccccc1[C@@H]1[C@H](C#N)N(C(=O)C2CCOCC2)[C@H]1CO	9
Cc1c(NC(=O)CSc2nnc(-c3cccs3)s2)c(=O)n(-c2ccccc2)n1C	-26
CN(C)C(=O)CN1[C@@H]2CCN(c3ncc(F)cn3)CC[C@@H]2Oc2ccccc2S1(=O)=O	-3
CN1CCC(n2cc(-c3ccnc(N)c3)c(-c3cccc(F)c3)n2)CC1	-97*
CCC(=O)Nc1cccc(-c2cn3ccc(C)cc3n2)c1	-12
CN(C)CC(=O)N1[C@H](CO)[C@H](c2ccccc2)C12CN(C(=O)c1ccc(F)cc1)C2	-27
Cc1cc(C)n(CC2(CNC(=O)CN3CCCN(C)CC3)CC2)n1	-19
Cc1noc(C)c1CN1CCn2c(CN(C)C(C)C)cnc2C1	-40
CN1CCN(C(=O)[C@@H]2[C@@H](CO)[C@@H]3Cn4c(cccc4=O)[C@@H]3N2Cc2cc(F)ccc2F)CC1	-49
COc1c(C(=O)NCC(C)n2cncn2)cnc2cc(Cl)ccc12 (stereo unspecified)	-67
Next entries follow:
SMILES	Tgondii IFNg
C[C@H]1O[C@@H](O[C@H]2[C@@H](O)C[C@H](O[C@H]3[C@@H](O)C[C@H](O[C@H]4CC[C@]5(C)C6CC[C@]7(C)[C@@H](C8=CC(=O)OC8)CC[C@]7(O)C6CC[C@@H]5C4)O[C@@H]3C)O[C@@H]2C)C[C@H](O)[C@@H]1O (stereo partly specified)	-80*!
CCOc1ccc(OCC)c(NS(=O)(=O)c2ccc3[nH]c(=O)ccc3c2)c1	42
CO[C@H]1CC[C@H]2CCOc3c(C#N)cccc3C(=O)N(C)CCCC(=O)N(C)C[C@H]1O2	8
O=C(c1ccoc1)N1CCC2(CC1)OC(C(=O)N1CCCC1)Cn1ccnc12 (stereo unspecified)	-28
C=CCN(Cc1cccnc1)C(=O)[C@@]12CC[C@@H](C1)C(C)(C)C2=C	-3
CCN1C(=O)C2(CCOCC2)c2cc(NCc3ccco3)ccc21	-11
COc1ccc(-c2nc(Cn3c(=O)c4c(C)cc(C)nc4n(-c4ccccc4OC)c3=O)c(C)o2)cc1	23
C[C@H]1CCCCO[C@H](CN(C)C(=O)Nc2ccccc2)[C@@H](C)CN([C@@H](C)CO)C(=O)c2cc(NC(=O)Nc3ccccc3)ccc2O1	209
O=C(NC1CCCC1)c1nc(Nc2ccc(F)cc2)c2ccccc2n1	-62
CCC(=O)N1C[C@H](C)[C@@H](OC)CN(C)C(=O)c2ccc(NC(=O)CC(F)(F)F)cc2OC[C@H]1C	-16
CS(=O)(=O)N1CCN(C(=O)c2ccccc2)CC1	3
O=C(Nc1ccc(-c2nnn(CC(=O)N3CCc4ccccc4C3)n2)cc1)c1cccnc1	-24
Cc1nc(-c2cccc(F)c2)sc1CCNC(=O)C(=O)Nc1ccc(F)cc1	14
Cc1cc(C(C)(C)C)c(O)c(C)c1CC1=NCCN1	15&-8&4
CNC(=O)c1[nH]cnc1C(=O)Nc1ccc(N)cc1	-11

7 entries drawn at random from those above:
SMILES	Tgondii IFNg
C[C@@H]1CN([C@@H](C)CO)C(=O)c2ccccc2-c2ccccc2CO[C@H]1CN(C)C(=O)[C@@H](Cc1ccccc1)N(C)C	10
CCOc1cc2c3c(c1)C(C)=CC(C)(C)N3C(=O)C2=O	-2
Cc1noc(C)c1CN1CCn2c(CN(C)C(C)C)cnc2C1	-40
COc1ccc(F)c(CN2CCCC(O)(CN3CCN(C(C)=O)CC3)C2=O)c1 (stereo unspecified)	21
CN1CCN(C(=O)[C@@H]2[C@@H](CO)[C@@H]3Cn4c(cccc4=O)[C@@H]3N2Cc2cc(F)ccc2F)CC1	-49
Cc1cc(CN2CCc3[nH]cnc3C2c2cccn2-c2nccs2)on1 (stereo unspecified)	-51
COc1ccc(-c2nc(Cn3c(=O)c4c(C)cc(C)nc4n(-c4ccccc4OC)c3=O)c(C)o2)cc1	23

Going on with the list:
SMILES	Tgondii IFNg
CO[C@@H]1CN(C)C(=O)c2ccc(NC(=O)Nc3ccccc3F)cc2OC[C@H](C)N(CC2CC2)C[C@@H]1C	30
Cc1oc(C2CCN(C(=O)Nc3cccc(F)c3C)CC2)nc1C(=O)N(C)C	-79*
COc1ccc(-c2nc(C)ncc2C)cc1Cl	1
COc1ccc(-c2cc(C(=O)Nc3ncc(-c4ccc(F)cc4)n3C)on2)cc1	-3
CCCCCCCCN1C(=O)C(C(C)=O)=C(C)C1(C)O (stereo unspecified)	11
CC(C)(O)C#Cc1ccc(C(=O)NCC2(c3ccccc3)CCOCC2)o1	75
Cc1nc2ccc(NC(=O)c3cccc(C(F)(F)F)c3)cc2nc1C	17
O=C(COc1ccc(Cl)cc1)Nc1ccccc1-c1nc(-c2ccccc2)no1	19
COCC(C)NC(=O)C1CCN(c2cc(C)c3ccc(Cl)cc3n2)CC1 (stereo unspecified)	2
CN(C)CCN1CCN(C(=O)c2cscn2)Cc2cccnc21	5
C[C@H]1CN([C@@H](C)CO)C(=O)c2ccccc2-c2ccccc2CO[C@@H]1CN(C)C(=O)Nc1cccc(Cl)c1Cl	-43
O=C(Nc1ccccc1Oc1ccc(F)cc1)C1CC(=O)N(Cc2cccnc2)C1 (stereo unspecified)	19
COCC(=O)N1[C@H](C(=O)N2CCN(C)CC2)[C@@H](CO)[C@@H]2Cn3c(ccc(C4=CCCCC4)c3=O)[C@@H]21	5
CC(C)COCC1CN(Cc2ccc3c(c2)OCO3)Cc2cncn2C1 (stereo unspecified)	0
CCC(=O)Nc1ccc(OCC(=O)N(C)C(C)c2ccon2)cc1 (stereo unspecified)	58
O=C(CC1(c2cccc(F)c2)CC(=O)N(C2CCCC2)C1=O)N1CCN(c2ccccc2F)CC1 (stereo unspecified)	33
CN(Cc1ccco1)[C@H]1CN(Cc2ccco2)C[C@@H]2CCCO[C@H]21	12
COc1ccccc1CNC(=O)CC1N=C2c3ccccc3N=C(SCc3cccc(F)c3)N2C1=O (stereo unspecified)	-52
Cc1ccc(CC2(NC(=O)c3cc(=O)[nH][nH]3)CC2)cc1	4
Cc1cc2nc(C)c(CCC(=O)Nc3ncc(-c4ccccc4)n3C)c(C)n2n1	14
CCc1nc(CN2C(=O)NC(CC)(C3CCNCC3)C2=O)cs1 (stereo unspecified)	-1

Three structures out of the list, ordered by formula weight, falling.
SMILES	Tgondii IFNg
O=C(CC1(c2cccc(F)c2)CC(=O)N(C2CCCC2)C1=O)N1CCN(c2ccccc2F)CC1 (stereo unspecified)	33
CN(Cc1ccco1)[C@H]1CN(Cc2ccco2)C[C@@H]2CCCO[C@H]21	12
Cc1ccc(CC2(NC(=O)c3cc(=O)[nH][nH]3)CC2)cc1	4
